PABP polyA inh – PABP poly(A) RNA binding inhibitors, primary screen, biochemical, fluorescence polarization, uHTS; inhibition, % at 35 µM; 1% of 290,000 active;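 active = 50% or more with normal probe brightness, or confirmed in later tests; inconclusive = above 50% with abnormal brightness, or retests that disagree; inactive = below 50% or failed in later tests; about a fifth of its hits are not listed in these tables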;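 also: calls also rest on retests at 20 µM and on dose response follow-up; controls were probe without protein and protein plus probe with vehicle; some compounds called inactive have numbers as strong as hits; many hits fall short of the cut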
Target sequence (P11940 whole entry, looked up): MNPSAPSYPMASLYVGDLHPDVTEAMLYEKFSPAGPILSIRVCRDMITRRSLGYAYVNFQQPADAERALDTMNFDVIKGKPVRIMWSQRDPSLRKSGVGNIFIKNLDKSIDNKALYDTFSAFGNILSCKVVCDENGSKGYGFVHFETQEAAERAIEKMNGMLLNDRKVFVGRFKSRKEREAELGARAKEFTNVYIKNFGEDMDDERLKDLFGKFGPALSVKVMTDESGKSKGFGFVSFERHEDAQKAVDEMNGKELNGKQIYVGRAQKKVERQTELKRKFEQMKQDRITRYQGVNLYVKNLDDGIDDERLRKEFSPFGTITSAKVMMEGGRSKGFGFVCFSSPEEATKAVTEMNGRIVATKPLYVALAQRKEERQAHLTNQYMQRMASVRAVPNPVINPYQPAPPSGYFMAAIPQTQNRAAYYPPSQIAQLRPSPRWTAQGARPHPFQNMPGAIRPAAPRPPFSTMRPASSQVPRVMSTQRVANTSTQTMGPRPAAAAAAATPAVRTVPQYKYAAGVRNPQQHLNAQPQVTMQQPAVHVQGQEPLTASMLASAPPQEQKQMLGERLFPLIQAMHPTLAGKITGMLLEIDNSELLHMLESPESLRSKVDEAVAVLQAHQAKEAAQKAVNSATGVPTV
MT1-MMP act inh – blockers of MT1-MMP proenzyme processing, primary screen, HT1080 RFP-PRO-GFP cells, GFP/RFP fluorescence. Matrix metalloproteinase-14 (Homo sapiens), P50281. GFP/RFP ratio fluorescence, overnight; percent of plate control window, DMSO zero. GFP/RFP ratio change, % at 20 µM. 0.061% of 360,000 active;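 active = GFP/RFP ratio change of at least 30% with cell ATP level not reduced by more than half and red fluorescence within 50% of control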; also: strong numbers were not always called active
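Test system: HT1080 RFP-PRO-GFP cells; Benchmarks: DMSO and RFP-L50D-GFP cell wells; Timing: cells overnight before dosing, compound overnight, 37 °C, 5% CO2; Compound: one 20 µM compound dose with 1% DMSO; Read-out: GFP/RFP fluorescence ratio.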
CSC inhib – cancer stem cell viability inhibitors, primary screen, luminescence | 1.1% of 300,000 active | AID 2717, 2010 | inhibition, % at 7.5 µM | cancer stem cell-like cells viability;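 active = mean at 75% or more and at least half the replicates too; inconclusive = mean and replicates disagree; tested in HMLE shEcad cells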;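 also: 0% = median of negative and 100% = median of positive control wells; the first replicate is given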
Yeast UUG start – modulators of yeast start codon fidelity, primary screen, whole organism, S. cerevisiae, single point, plate reader; S. cerevisiae UUG-firefly luciferase reporter, luminescence/redox ratio; activity score, % at 18.7 µM; 0.13% of 350,000 active;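 active = replicate mean at a twofold rise or more, about +100% in these data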;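 also: firefly luciferase made from a UUG start codon reports start codon fidelity; reporter light over untreated wells divided by growth signal over untreated wells; some hits fall short of that in this replicate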
Env fusion inh – inhibitors of HIV-1 Env-driven cell-cell fusion, primary screen, HeLa-JRFL effector, CEM21 target cells, luciferase | inhibition, % at 12.3 µM | 1.1% of 360,000 active | AID 651610, 2012;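 active = mean replicate inhibition score of at least 50 and every replicate individually at or above 50; inconclusive = only one of the two criteria met; inactive = mean below 50 and not all replicates reaching 50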;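 also: 0% = plate neutral controls and 100% = maraviroc near 300 nM; one replicate is shown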
Rce1 inh – yeast Rce1p protease inhibitors, primary screen, biochemical, fluorescence, cell-free homogeneous. yeast membranes, quenched prenylated peptide cleavage fluorescence. calls only. 0.27% of 290,000 active;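 active = fall in fluorescence gain of 50% or more versus controls, with final raw signal at or below 3038400; inconclusive = same 50% fall but final raw signal above 3038400; inactive = fall in fluorescence gain under 50%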;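 also: plate controls were neutral control wells for no effect and wells lacking membranes for full effect; tested at 10 µM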
eIF4H inh – human eIF4H binding inhibitors, primary screen, translation initiation inhibitor project, biochemical, uHTS, fluorescence polarization; inhibition, % at 35 µM; AID 2012, 2009; eIF4H fluorescence polarization binding assay; Eukaryotic translation initiation factor 4H (Homo sapiens), Q15056; 0.94% of 290,000 active;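 active = 50% or more with normal probe brightness, or confirmed in later tests; inconclusive = above 50% with abnormal brightness, or retests that disagree; inactive = below 50% or failed in later tests; about a fifth of its hits are not listed in these tables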;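 also: calls also rest on retests at 20 µM and on dose response follow-up; 0% = protein and probe with vehicle and 100% = probe without protein; strong numbers were not always called active; many hits fall short of the cut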
MT1-MMP act inh RFP – recorded beside MT1-MMP act inh, whose call it bears; RFP signal change, %; measured here: RFP expression control read;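 0 = vehicle wells; hits needed this value within 50% of zero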
The depositor's hits bear a star.

For CC12CCC3c4ccccc4CCC3(CO1)C2 (stereo not drawn) the results were MT1-MMP act inh 0, Yeast UUG start -8, Env fusion inh -28 and MT1-MMP act inh RFP -1.
Screening Cc1ccc(C(=O)OCC(=O)N2C(C)CCCC2C)cc1S(=O)(=O)N1CCCCC1 (stereo not drawn) returned MT1-MMP act inh 3, CSC inhib -7, Env fusion inh -16, Rce1 inh inactive and MT1-MMP act inh RFP -7.
`CC(=O)OCC(=O)[C@H]1CC[C@H]2[C@@H]3CC=C4C[C@@H](O)CC[C@]4(C)[C@H]3CC[C@]12C` gave PABP polyA inh -1, MT1-MMP act inh 7, CSC inhib 4, Yeast UUG start -22, Env fusion inh -9, Rce1 inh inactive, eIF4H inh -7 and MT1-MMP act inh RFP -3.
For O=C1CCC(C(=O)Nc2ccc([N+](=O)[O-])cc2)N1 (stereo not drawn) the results were MT1-MMP act inh -1, CSC inhib -10, Yeast UUG start -5, Env fusion inh -2 and MT1-MMP act inh RFP 0.
For CCOC(=O)C1=C(C)N=C2SCCC(=O)N2C1c1ccc(OC)cc1 (stereo not drawn) the results were PABP polyA inh -3, CSC inhib 5, Rce1 inh inactive and eIF4H inh 6.
COc1ccc(NC(=O)CN(C)C(=O)CN2C(=O)NC3(CCCCC3)C2=O)cc1 was read as MT1-MMP act inh 1, Yeast UUG start -13, Env fusion inh 1 and MT1-MMP act inh RFP 7.
For Cc1cc(NC(=O)c2ccc(F)cc2)n(-c2ccccc2)n1 the results were PABP polyA inh -4, MT1-MMP act inh 6, CSC inhib -8, Yeast UUG start -16, Env fusion inh 13, Rce1 inh inactive, eIF4H inh 7 and MT1-MMP act inh RFP 7.
For Cc1nc2ccccc2cc1O the results were PABP polyA inh -10, MT1-MMP act inh 3, CSC inhib -4, Rce1 inh inactive, eIF4H inh -7 and MT1-MMP act inh RFP 0.
`COC(=O)[C@H](CC(C)C)NC(=O)Nc1ccc(S(N)(=O)=O)cc1` gave PABP polyA inh 8, MT1-MMP act inh -2, CSC inhib -4, Yeast UUG start -7, Env fusion inh -6, Rce1 inh inactive, eIF4H inh -2 and MT1-MMP act inh RFP -4.
Screening COc1ccc(N2CCN(C(=O)COc3ccc4ccccc4c3)CC2)cc1 returned PABP polyA inh 14, MT1-MMP act inh 5, CSC inhib -16, Rce1 inh inactive, eIF4H inh -2 and MT1-MMP act inh RFP 2.
For COc1cc(/C=C/C(=O)O)ccc1OCc1ccc([N+](=O)[O-])cc1 the results were PABP polyA inh -12, MT1-MMP act inh -2, CSC inhib 3, Env fusion inh -11, Rce1 inh inactive, eIF4H inh -13 and MT1-MMP act inh RFP -3.
`Cc1nn(CC(=O)Nc2cccnc2)c(C)c1[N+](=O)[O-]` gave PABP polyA inh -3, MT1-MMP act inh 2, CSC inhib -18, Yeast UUG start -4, Env fusion inh 2, Rce1 inh inactive, eIF4H inh -7 and MT1-MMP act inh RFP -2.
`CC1CCN(C(=O)c2ccc(S(=O)(=O)NCc3ccco3)cc2)CC1` gave PABP polyA inh 1, MT1-MMP act inh 3, CSC inhib 28, Yeast UUG start 25, Env fusion inh 9, Rce1 inh inactive, eIF4H inh 9 and MT1-MMP act inh RFP 1.
For CCOC(=O)c1ccc(NC(=O)CN2C(=O)CSC2=O)cc1 the results were PABP polyA inh -6, MT1-MMP act inh -3, CSC inhib -11, Yeast UUG start -21, Env fusion inh 0, eIF4H inh 4 and MT1-MMP act inh RFP 1.
`O=C(Cn1ccc(NC(=O)OCc2ccccc2)nc1=O)NCc1ccc2c(c1)OCO2` gave MT1-MMP act inh 4, CSC inhib 2, Yeast UUG start -21 and MT1-MMP act inh RFP 0.
COc1ccc(C(=O)OCCCN(C)C)cc1OC was read as PABP polyA inh 24, MT1-MMP act inh 3, CSC inhib -1, Yeast UUG start -16, Env fusion inh 19, Rce1 inh inactive, eIF4H inh -17 and MT1-MMP act inh RFP 5.
COc1ccc(/C=C/C(=O)OCC(=O)c2ccc[nH]2)cc1 was read as MT1-MMP act inh 2, CSC inhib -4, Yeast UUG start -6 and MT1-MMP act inh RFP 0.
`Cc1ccc(S(=O)(=O)CCC(=O)OCC(=O)c2cc(C)n(C)c2C)cc1` gave MT1-MMP act inh 4, Yeast UUG start -8, Env fusion inh -10 and MT1-MMP act inh RFP 1.
`COc1cccc2c3c(c(=O)[nH]c12)CC(C)(C)O3` gave MT1-MMP act inh 5, CSC inhib -8, Yeast UUG start -21, Env fusion inh 1, Rce1 inh inactive and MT1-MMP act inh RFP -1.
For Cc1ccc(C(=O)Nc2ccc3ncccc3c2)cc1 the results were PABP polyA inh 18, MT1-MMP act inh 2, CSC inhib 0, Yeast UUG start -68, Env fusion inh -20, Rce1 inh inactive, eIF4H inh 6 and MT1-MMP act inh RFP 0.
CC(C)CNC(=O)CN(C)S(=O)(=O)c1ccc(F)cc1 was read as PABP polyA inh 7, MT1-MMP act inh -3, CSC inhib 9, Env fusion inh -13, Rce1 inh inactive, eIF4H inh 3 and MT1-MMP act inh RFP 6.
`COc1ccc2c(COC(=O)CCS(=O)(=O)c3ccccc3)cc(=O)oc2c1` gave PABP polyA inh 16, MT1-MMP act inh -2, CSC inhib 6, Rce1 inh inactive, eIF4H inh 5 and MT1-MMP act inh RFP 0.
CC(=O)Nc1ccc(S(=O)(=O)c2cc(O)ccc2O)cc1 was read as PABP polyA inh 0, MT1-MMP act inh -1, Yeast UUG start -15, Env fusion inh -33, Rce1 inh inactive, eIF4H inh 1 and MT1-MMP act inh RFP 2.
CCOc1ccccc1NC(=O)COC(=O)c1nc2nccc(C)n2n1 was read as MT1-MMP act inh -1, CSC inhib -22, Yeast UUG start -23, Env fusion inh -9 and MT1-MMP act inh RFP 3.

Overlap with the part before: 5 compounds; new compounds follow.
For Cc1ccc(C(=O)Nc2ccc3ncccc3c2)cc1 the results were PABP polyA inh 18, MT1-MMP act inh 2, CSC inhib 0, Yeast UUG start -68, Env fusion inh -20, Rce1 inh inactive, eIF4H inh 6 and MT1-MMP act inh RFP 0.
CC(C)CNC(=O)CN(C)S(=O)(=O)c1ccc(F)cc1 was read as PABP polyA inh 7, MT1-MMP act inh -3, CSC inhib 9, Env fusion inh -13, Rce1 inh inactive, eIF4H inh 3 and MT1-MMP act inh RFP 6.
`COc1ccc2c(COC(=O)CCS(=O)(=O)c3ccccc3)cc(=O)oc2c1` gave PABP polyA inh 16, MT1-MMP act inh -2, CSC inhib 6, Rce1 inh inactive, eIF4H inh 5 and MT1-MMP act inh RFP 0.
CC(=O)Nc1ccc(S(=O)(=O)c2cc(O)ccc2O)cc1 was read as PABP polyA inh 0, MT1-MMP act inh -1, Yeast UUG start -15, Env fusion inh -33, Rce1 inh inactive, eIF4H inh 1 and MT1-MMP act inh RFP 2.
CCOc1ccccc1NC(=O)COC(=O)c1nc2nccc(C)n2n1 was read as MT1-MMP act inh -1, CSC inhib -22, Yeast UUG start -23, Env fusion inh -9 and MT1-MMP act inh RFP 3.
`CCOC(=O)c1sc(NC(=O)c2ccncc2)c(C#N)c1C` gave PABP polyA inh -2, MT1-MMP act inh 1, CSC inhib -1, Env fusion inh 30, Rce1 inh inactive, eIF4H inh 1 and MT1-MMP act inh RFP -32.
COc1ccc(C(=O)C2CCCN(C(=O)c3ccc4cc[nH]c4c3)C2)c(C)c1 (stereo not drawn) was read as PABP polyA inh 5, MT1-MMP act inh 0, CSC inhib -7, Yeast UUG start -4, Env fusion inh -6, Rce1 inh inactive, eIF4H inh 6 and MT1-MMP act inh RFP 0.
For COc1ccc(N2CCN(S(=O)(=O)c3cc(-c4cc(C)no4)ccc3C(C)C)CC2)cc1 the results were PABP polyA inh 2, MT1-MMP act inh -5, CSC inhib 12, Yeast UUG start -6, Env fusion inh 13, Rce1 inh inactive, eIF4H inh -5 and MT1-MMP act inh RFP -11.
Cc1csc(NC(=O)c2ccc(Br)s2)n1 was read as PABP polyA inh 3, MT1-MMP act inh -9, CSC inhib 15, Yeast UUG start -30, Env fusion inh -76, Rce1 inh inactive, eIF4H inh -7 and MT1-MMP act inh RFP -11.
Screening COc1ccc(/C=N/NC(=O)c2ccc(NS(=O)(=O)c3cccs3)cc2)cc1 returned MT1-MMP act inh 19, CSC inhib -6, Yeast UUG start 5 and MT1-MMP act inh RFP 2.
O=C1N[C@@H](Cc2c[nH]c3ccccc23)COC(=O)[C@H](Cc2ccc(F)cc2)C/C=C\C[C@@H]1CC(=O)N(CCO)Cc1ccccc1 was read as MT1-MMP act inh 16, CSC inhib 1, Yeast UUG start -23, Env fusion inh -4 and MT1-MMP act inh RFP -10.
`CC(C)NC(=O)c1c2c(nc3ccccc13)CCCC2` gave PABP polyA inh 0, MT1-MMP act inh -3, CSC inhib -5, Yeast UUG start -4, Rce1 inh inactive, eIF4H inh 4 and MT1-MMP act inh RFP 1.
For CC(CN1CCOCC1)OC(=O)c1ccc2c(c1)OCCO2 (stereo not drawn) the results were PABP polyA inh 6, MT1-MMP act inh -1, CSC inhib 2, Yeast UUG start -20, Rce1 inh inactive, eIF4H inh 7 and MT1-MMP act inh RFP 0.
Cn1c(Nc2ccc(F)cc2)nc2ccccc21 was read as PABP polyA inh -1, MT1-MMP act inh 4, CSC inhib -13, Yeast UUG start -8, Env fusion inh -38, Rce1 inh inactive, eIF4H inh -12 and MT1-MMP act inh RFP -1.
`Cc1ccccc1OCC(=O)NC(=S)Nc1ccc(N2CCCC2)cc1` gave PABP polyA inh -10, MT1-MMP act inh 3, CSC inhib -8, Env fusion inh 8, Rce1 inh inactive, eIF4H inh -2 and MT1-MMP act inh RFP -2.
Screening COc1ccc(C(O)(c2ccccc2)C(C(=O)O)c2ccccc2)cc1 (stereo not drawn) returned MT1-MMP act inh 0, Yeast UUG start -8, Env fusion inh -11 and MT1-MMP act inh RFP 7.
`O=C(CN1C(=O)S/C(=C\c2ccccc2F)C1=O)NC1C=CS(=O)(=O)C1` (stereo not drawn) gave PABP polyA inh -2, MT1-MMP act inh -8, CSC inhib 15, Yeast UUG start -8, Env fusion inh -7, Rce1 inh inactive, eIF4H inh -2 and MT1-MMP act inh RFP -4.
For O=C(COC(=O)c1ccccc1C(=O)N1CCN(c2ccccc2)CC1)NCc1ccccc1 the results were PABP polyA inh inconclusive, MT1-MMP act inh -33, CSC inhib -12, Yeast UUG start -8, Env fusion inh -1, Rce1 inh inactive, eIF4H inh inconclusive and MT1-MMP act inh RFP 0.
COc1cccc(CNC(=O)[C@H](CCSC)NC(=O)N2CCn3c2nc2ccccc23)c1 was read as PABP polyA inh -8, MT1-MMP act inh 4, CSC inhib -12, Yeast UUG start -20, Env fusion inh 5, Rce1 inh inactive, eIF4H inh -4 and MT1-MMP act inh RFP 1.
For O=C1CN(C(=O)/C=C/c2ccccc2F)c2ccccc2N1 the results were PABP polyA inh -8, MT1-MMP act inh 0, CSC inhib 6, Env fusion inh 7, Rce1 inh inactive, eIF4H inh -6 and MT1-MMP act inh RFP 0.
For Cc1cc2ncc(S(=O)(=O)C(C)(C)C)c(N)n2n1 the results were PABP polyA inh 9, MT1-MMP act inh 3, CSC inhib -14, Env fusion inh 8, Rce1 inh inactive, eIF4H inh 0 and MT1-MMP act inh RFP -2.

The list is partial (hit frequency here may not be typical).
